TRPML1 blocker: inhibitors of human TRPML1 channel; AID 624415; TRPML1-inducible cells, Ca2+ dye fluorescence, FDSS; hits give low values; inhibition of EC80 agonist-evoked calcium signal; Q9GZU1; 390,000 tested, 0.02% active; activity change, negative = inhibition, % (concentration not given with the values); in the data active means activity change below about -50%; inconclusive means about -30% to -50%; inactive means above about -30%;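 also: stimulus is agonist 54-4 at its EC80 concentration; % is scaled to controls: 0 for no effect and ±100 for the full control effect; compound concentration not given in the record; the text of the record puts the active cut at -80%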
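TRPML1-DL cells, Tet-induced overnight (~16 h, 37 °C) at 1,500 cells/well, were loaded with Ca8 no-wash dye plus quencher for 45-90 min at room temperature. Compounds were pinned during FDSS kinetic reading; agonist 54-4 at EC80 (4 uM final) then added.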
TRPML1 ag: human mucolipin-1 channel agonism. Q9GZU1. TRPML1-expressing cells, Ca2+ dye fluorescence, FDSS; host cell line not named in the record; reference of the full effect not given here. activation, % (no concentration beside the values). 410,000 tested, 0.12% active. AID 624414; in the data active = activation above about 50%; inconclusive = about 30% to 50%; inactive = below about 30%; also: 0% is about no effect; the text of the record puts the active cut at 80%
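Agonist activity was taken from a 110 s kinetic Ca2+ dye read on the FDSS after pinning compounds onto TRPML1-DL cells. The cells were seeded at 1,500/well with Tet inducer, incubated about 16 h, then dye-loaded at room temperature.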
ClpP mod: qHTS Assay for Activators of ClpP; ATP-dependent Clp protease proteolytic subunit (Bacillus subtilis (strain 168)), P80244; purified B. subtilis ClpP, FRET peptide cleavage, 20 min; Potency, µM (titrated, usually from 57.5 µM), for inactives: at the top dose activity change, negative = active; 340,000 tested, 1.9% active; active = well fitted falling curve with a large enough effect; inconclusive = small, poorly fitted or top-dose-only effect; inactive = no such curve, though single readings can be large or run the other way; also: potency is read from the fitted curve at half-maximal effect; the source files actives as falling curves though it sought activators and does not explain the sign; nearly all actives have a fitted effect of over 65% in size; many hits overshoot -100%
Target sequence (P80244 whole entry, looked up): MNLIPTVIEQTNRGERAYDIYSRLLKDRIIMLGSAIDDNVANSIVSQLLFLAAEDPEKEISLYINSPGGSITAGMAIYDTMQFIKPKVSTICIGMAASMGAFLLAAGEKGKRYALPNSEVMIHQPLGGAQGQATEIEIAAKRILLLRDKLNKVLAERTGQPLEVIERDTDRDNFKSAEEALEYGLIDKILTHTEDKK
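FRET quenching reversal measured ClpP activation: 10 microg/mL B. subtilis ClpP at pH 8 with the FRET-FV decapeptide, read at 430 nm after 320 nm excitation. The 20-min minus 0-min signal was scaled between DMSO/no-enzyme wells and ADEP (5.8 microM final).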
TRPV1 PAM: potentiators of human vanilloid receptor 1 (TRPV1); TRPV1-expressing cells, Fluo-8 calcium influx, capsaicin EC20 potentiation; host cell line not named in the record; control for the full effect not named in the record; potentiation, % at 8.33 µM; 320,000 tested, 0.02% active; AID 540277; active means potentiation above 80%; inconclusive means 30% to 80%; inactive means below 30%; also: 0% is about no effect
Target sequence (Q8NER1 whole entry, looked up): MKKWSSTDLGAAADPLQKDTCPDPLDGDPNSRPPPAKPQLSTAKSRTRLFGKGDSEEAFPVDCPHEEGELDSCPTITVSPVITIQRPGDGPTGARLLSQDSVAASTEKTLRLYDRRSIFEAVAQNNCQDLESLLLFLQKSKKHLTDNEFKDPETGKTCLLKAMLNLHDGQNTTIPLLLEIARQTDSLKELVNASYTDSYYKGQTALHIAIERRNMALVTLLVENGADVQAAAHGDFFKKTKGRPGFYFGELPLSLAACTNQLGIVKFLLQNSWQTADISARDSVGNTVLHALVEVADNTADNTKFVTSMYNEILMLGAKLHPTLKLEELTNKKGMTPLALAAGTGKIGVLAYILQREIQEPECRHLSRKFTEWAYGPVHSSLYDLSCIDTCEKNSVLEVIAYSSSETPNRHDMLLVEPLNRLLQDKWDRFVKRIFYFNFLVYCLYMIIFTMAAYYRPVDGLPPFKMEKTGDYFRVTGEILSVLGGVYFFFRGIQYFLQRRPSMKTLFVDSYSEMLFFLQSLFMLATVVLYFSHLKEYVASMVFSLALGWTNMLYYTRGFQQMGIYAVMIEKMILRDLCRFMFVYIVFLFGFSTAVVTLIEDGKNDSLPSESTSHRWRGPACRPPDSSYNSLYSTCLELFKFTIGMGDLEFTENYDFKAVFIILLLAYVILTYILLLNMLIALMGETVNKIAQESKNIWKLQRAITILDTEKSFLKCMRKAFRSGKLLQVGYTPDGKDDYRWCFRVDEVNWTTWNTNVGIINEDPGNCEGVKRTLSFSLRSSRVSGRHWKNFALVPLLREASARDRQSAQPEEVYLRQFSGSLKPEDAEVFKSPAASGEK
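TRPV1-expressing cells were cultured overnight at 35.5C and loaded with Fluo-8 calcium dye for 40 to 90 min at room temperature. After a 10 s baseline, compound was added and calcium influx was read kinetically for 3 min (ex 480/em 520 nm).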
Menin MLL FP FL: menin-MLL binding inhibition, fluorescein peptide. Fluorescence polarization, fluorescein-MLL peptide displacement from menin. 290,000 tested, under 10 active. FP activity change, % at 61.4 µM. AID 1766; inconclusive = falling polarisation curve, or a change in total fluorescence; inactive = total fluorescence flat and polarisation flat or rising; no compound was filed as active; the % refers to the polarisation; negative = inhibition;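 also: % of control where 0% means no effect; inhibitors lower the polarisation; unlabelled MLL peptide was the positive control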
Sfp PPTase inh: inhibitors of Bacillus subtilis Sfp phosphopantetheinyl transferase; 310,000 tested, 3.5% active; Potency, µM, without a hit: max response, negative = inhibition, hits mostly inhibitors; Biochemical Sfp PPTase activity, qHTS; active = well fitted inhibition curve with a large enough effect; inconclusive = small, poorly fitted or top-dose-only effect, or another doubt; inactive = no such curve, though single readings can be large or run the other way;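 also: the enzyme is Sfp with the accession as filed and its product quenches rhodamine fluorescence; potency is read from the fitted curve at half-maximal effect; 0% = enzyme reaction without inhibitor and -100% = no enzyme wells; top concentration of the series not given in the record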
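Step 1, compound plus 15 nM Sfp-PPTase, 15 min, room temperature. Step 2, add rhodamine-CoA (5 uM) and BHQ-2-YbbR (12.5 uM). Step 3, read 525/598 nm fluorescence at 0 and 30 min.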
PINK1 expr mod: changes PINK1 expression; AID 624263; 410,000 tested, 0.2% active; Potency, µM (top dose mostly 76.6 µM), for inactives: at the top dose activation (PINK1 increase), most hits filed as activators; PINK1 immunofluorescence, high-content cytometry, 24 h; active = well fitted activation curve with a large enough effect; inconclusive = small, poorly fitted or top-dose-only effect; inactive = flat fitted curve, though single readings scatter; cell line not stated here;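 also: potency is read from the fitted curve at half-maximal effect; % of control where 0% means no effect; nearly all actives have a fitted effect of over 65% in size; a mitochondrial uncoupler was the plate control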
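PINK1 protein level read as immunofluorescence by microplate cytometer in a fixed, stained stable cell line after 24 h exposure to five compound concentrations, with CCCP as control.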
Numbers without * were called inactive; u = inconclusive; x = no result given; & = joins results of further samples; [ ] = another dose, or the depositor's remark.

SMILES | TRPML1 blocker | TRPML1 ag | ClpP mod | TRPV1 PAM | Menin MLL FP FL | Sfp PPTase inh | PINK1 expr mod
O=P(c1ccccc1)(c1ccccc1)N(c1ccccc1)c1ccccc1 | 1.1 | 0.6 | 2.2% | -17.8 | 4.5 | 5.3% | -3.0%
COC(=O)c1cccnc1N1CCN(c2ccccc2F)CC1 | 6.4 | -0.7 | -2.2% | 8.5 | -0.4 | -6.3% | 1.4%
COCCNc1ncnc2c1ncn2[C@H]1CN(Cc2ccc(OC)cc2)C[C@@H](CO)O1 | x | 0.1 | -0.6% | x | x | x | 1.0%
Cn1nc(C(=O)N2CCC(C(N)=O)CC2)c2c1-c1ccccc1SC2 | 3.5 | -0.2 | 1.5% | -3.4 | 3.2 | 4.3% | 0.4%
O=C(c1cccc(-c2nnc(-c3ccccc3)o2)c1)N1CCCCCC1 | -10.9 | 0.1 | -22.8% | -5.0 | 4.4 | -0.3% | 2.7%[38.3 µM]
Cc1ccccc1C(=O)O/N=C(\N)Cc1cccs1 | -17.2 | -0.3 | 1.0% | 1.5 | 0.3 | 10.5% | 3.0%
COc1ccc(NC(=O)C[C@@H]2C(=O)N(Cc3ccccc3)CC2(C)C)cc1 | -15.6 | -0.4 | 0.5% | x | x | x | 2.7%
O=[N+]([O-])c1cccc(-c2nnc(C3CC3)o2)c1 | -13.5 | 1.2 | x | -5.2 | -2.6 | 3.3% | -1.7%
O=S(=O)(NCC(c1ccccc1)N1CCc2ccccc21)c1ccccc1 (stereo not drawn) | 25.4 | 4.4 | -4.2% | x | x | x | u
CC(CCc1ccccc1)NC(=O)CSc1nc(N)cc(N)n1 (stereo not drawn) | 12.6 | 1.5 | -4.1% | 10.2 | -1.9 | 11.6% | -3.4%
CC1CCCC(=NNC(=O)C2COc3ccccc3O2)C1 (stereo not drawn) | 7.2 | -0.5 | 0.8% | x | x | x | 5.2%
COc1ccccc1-n1nnnc1SCC(=O)NC1CCCC1 | -1.7 | 0.3 | 1.9% | -34.1 | 0.9 | 22.9% | -1.6%
CC(Nc1cccc(C(=O)NC2CC2)c1)c1nnc(-c2ccccc2)o1 (stereo not drawn) | -9.2 | -0.7 | x | x | x | x | 1.5%
N#Cc1cccc(NC(=O)CCC2CCCC2)c1 | -2.7 | -0.2 | 0.7% | 0.0 | 5.9 | 11.7% | 0.7%
COc1cc(NC(=O)N2CCOCC2)cc(OC)c1 | 21.8 | 0.1 | -0.5% | 0.7 | 1.4 | 9.9% | 3.5%
Cc1cc(O)c(NC(=O)c2ccc(C)c([N+](=O)[O-])c2)cc1C | 16.0 | -0.9 | x | -7.0 | -1.2 | 17.1% | 0.7%
COc1cc(CN2CCC(n3nccc3NC(=O)CCCc3ccccc3)CC2)ccc1O | -5.5 | -0.2 | 1.3% | 9.4 | 2.1 | 3.4% | -1.3%
CC(C)C[C@H](NC(=O)N1CCn2c1nc1ccccc12)C(=O)N[C@H](Cc1ccccc1)C(=O)O | x | x | -14.1% | -9.4 | -0.4 | 11.1% | 1.2%
CCOc1ccc(N(c2nc(-c3ccc(OC)c(OC)c3)no2)c2nc(-c3ccc(OC)c(OC)c3)no2)cc1 | 12.8 | 0.2 | 1.8% | x | x | x | 2.5%
O=C(CN1C(=O)C2C3CCC(C3)C2C1=O)NCc1ccco1 (stereo not drawn) | 3.8 | -0.7 | x | -13.2 | 1.8 | 8.2% | 3.8%
CN1C(=O)c2ccc(NC(=O)c3cccc(N4C(=O)CCC4=O)c3)cc2C1=O | -21.2 | 0.1 | 3.5% | 10.8 | 5.1 | 5.1% | -0.7%
c1ccc(-c2oc3ncnc(NCCN4CCOCC4)c3c2-c2ccccc2)cc1 | 2.2 | -0.3 | 15.8µM* | -13.9 | -4.7 | -3.1% | -5.3%[38.3 µM]
COc1cccc(NC(=O)CCc2nc(-c3cc(OC)c(OC)c(OC)c3)no2)c1 | 4.3 | -1.2 | -1.6% | x | x | x | -0.6%
COc1ccc(NC(=O)Cn2nnc(C(=O)NCc3ccc4c(c3)OCO4)c2N)c(OC)c1 | 28.4 | 0.2 | 0.9% | -3.7 | 0.9 | -13.8% | 1.2%
COc1ccc(CC(=O)Nc2nncs2)cc1OC | -6.1 | -0.6 | -1.4% | 18.2 | 1.0 | -4.7% | 11.9%[38.3 µM]
CCc1c(C)nc(SCC(=O)N2CCCCC2)[nH]c1=O | x | x | 0.1% | -5.0 | 6.7 | 13.4% | -0.6%
COC(=O)CCC1(C(N)=O)CCC(=O)c2ccccc21 (stereo not drawn) | 19.2 | -0.5 | 1.8% | x | x | x | -3.7%
Cc1ccc2[nH]c(C(=O)N3CCCC(Nc4ccc(F)cc4)C3)cc2c1 (stereo not drawn) | -7.5 | -0.5 | -2.5% | -13.7 | -4.8 | u | 1.8%
O=C(c1cc2ccccc2o1)c1cccs1 | -8.0 | 1.7 | -4.5% | -13.7 | 3.7 | -2.5% | 3.2%
Cc1cc(Nc2ccccc2)n(CCO)n1 | 12.2 | 0.4 | -2.2% | -1.4 | 0.0 | 12.7% | x
Cc1noc(C)c1C(=O)N1CCC2(CC1)CN(C(=O)Nc1cccc(F)c1)C2 | x | x | x | x | 1.0 | 12.4% | 2.9%
COc1ccc(OC(=O)N2C/C(=C/c3ccccc3)C(=O)/C(=C\c3ccccc3)C2)cc1 | 29.3 | 1.1 | 1.5% | x | x | x | -1.6%
CCOC(=O)c1ccc(NC(=O)Cc2noc3ccc(C)cc23)cc1 | 1.4 | 0.4 | 1.7% | x | x | x | -0.5%
O=C(CCNC(=O)c1ccc([N+](=O)[O-])cc1)NCC1COc2ccccc2O1 (stereo not drawn) | 17.6 | 0.7 | 1.0% | -4.6 | x | x | -5.0%
CC(O)(c1cccs1)C(C(=O)O)c1ccccc1 (stereo not drawn) | -5.9 | -0.6 | 15.3% | x | x | x | 3.9%
C=CCn1c(=O)c(C(=O)OCC)c(O)c2ccccc21 | 47.7 | 2.9 | -7.0% | 1.8 | -3.6 | 13.8% | 3.6%
Cc1ccc(Cn2c(=O)n(Cc3ccccc3)c(=O)c3oc4ccccc4c32)cc1 | 8.1 | 0.3 | -20.3% | x | x | x | -0.7%
Cc1cc(OC(C)C(=O)NCC2CCC(C(=O)O)CC2)c2c(C)c(Cc3ccccc3)c(=O)oc2c1 (stereo not drawn) | x | x | 5.0% | 11.2 | 2.3 | -8.0% | 1.6%
C#CCNC(=O)C1=C[C@@H](C)[C@H](CCCO)[C@@H](OCC)O1 | 3.8 | -0.6 | 1.4% | x | x | x | -0.8%
CCC1CCCCN1CCCNC(=O)CC1Oc2ccccc2NC1=O (stereo not drawn) | 3.0 | 0.7 | -7.4% | -0.9 | -5.7 | 3.0% | 6.4%
CN(CC(=O)Nc1ccc(Cl)c(C(F)(F)F)c1)C(=O)COc1cccc2cccnc12 | 2.7 | -0.2 | -9.6% | x | x | x | 0.4%
CCCc1cnc2c(c1SCC(=O)N1CCC(C)CC1)c(=O)n(C)c(=O)n2C | -12.8 | -0.8 | 0.4% | x | x | x | -0.9%
CCCCOc1nc(N)nc(-c2ccccc2)n1 | 7.2 | 0.8 | 1.6% | 20.6 | -1.0 | -0.6% | 15.6%[38.3 µM]
Cn1nnnc1SCC(=O)c1ccc2c(c1)OCCO2 | 12.5 | -0.7 | -2.0% | 10.2 | 6.4 | 10.3% | -1.0%
CCCCCOC(=O)c1c(N)n(CCOC)c2nc3ccccc3nc12 | 12.0 | 2.1 | 41.2% | -2.8 | 3.2 | -14.6% | 0.8%
c1ccc(CNc2ncnc3ccc(-c4ccoc4)cc23)cc1 | x | x | x | x | 13.4 | 0.2% | 1.3%
CN(Cc1ccon1)C(=O)C1CCN(C2CCN(CCCc3ccccc3)CC2)CC1 | 46.9 | 0.0 | -1.9% | 1.3 | x | 14.6% | 2.8%
CN(Cc1ccccc1OCCO)CC1CCCN(CCc2ccc(Cl)cc2)C1 (stereo not drawn) | -12.9 | 1.2 | -2.5% | 0.1 | -1.8 | 6.6% | 5.2%
CN(C)NC(=O)c1ccsc1NC(=O)c1ccc(S(=O)(=O)N(C)C)cc1 | 14.9 | -0.7 | 1.0% | -5.5 | 3.5 | -5.3% | -0.5%
CC(C)CCN1CCN(Cc2cccs2)CC1CCO (stereo not drawn) | -5.7 | -0.5 | x | -3.0 | 0.4 | 1.4% | -0.3%
(cont.)
SMILES | TRPML1 blocker | TRPML1 ag | ClpP mod | TRPV1 PAM | Menin MLL FP FL | Sfp PPTase inh | PINK1 expr mod
O=C(CS(=O)CC(=O)N(CC(=O)NC1CCCC1)c1ccccc1F)Nc1ccc(F)cc1 (stereo not drawn) | 34.9 | -0.3 | -1.5% | 3.4 | -2.8 | 17.2% | -0.7%
CCN(CC)c1ccc(NC(=O)CSc2nnc(C)c(=O)[nH]2)cc1 | -11.8 | -0.7 | 2.4% | x | x | x | 0.1%
Cc1ccc(/C=C/S(=O)(=O)NCC(=O)OCC(=O)N2CC(=O)Nc3ccccc32)cc1 | -15.0 | 0.9 | -2.8% | 4.2 | 3.5 | 19.4% | -1.3%
O=c1c2cc(NC(=S)N3CCCCC3)ccc2nc2n1CCCCC2 | 21.3 | -0.1 | -3.3% | -8.1 | -0.4 | 22.9% | 1.3%
CC(C)C(NS(=O)(=O)c1cccc2nsnc12)C(=O)NCc1ccco1 (stereo not drawn) | -23.9 | -0.1 | -0.9% | -8.9 | -3.6 | 10.5% | -1.1%
CSc1cccc(Nc2cc(C(=O)NCCCN(Cc3ccccc3)C(C)C)c3ccccc3n2)c1 | -18.0 | 0.9 | 35.5µM* | x | x | x | 3.5%
O=C(/C=C/[C@H]1O[C@@H](n2ccc(=O)[nH]c2=O)[C@H](O)[C@@H]1O)NCc1ccccn1 | -7.3 | 0.6 | -2.4% | x | x | x | 2.5%
Cc1cc2[nH]c(=O)c(=O)[nH]c2cc1S(=O)(=O)N1CCN(c2cccc(C)c2C)CC1 | -13.3&8.1 | 0.3&4.3 | -23.2%&-23.7% | -15.6 | -1.9 | 0.1% | 16.3%&8.5%
COc1cc(/C=N/NC(=O)CNC(=O)c2cccs2)ccc1O | -2.5 | -0.4 | -11.1% | -16.9 | 0.4 | -26.8% | -0.1%
O=C1CC2(CCN(C(=O)c3ccc(F)cc3)CC2)Oc2ccccc21 | -9.3 | 0.0 | x | -2.6 | x | x | -3.5%
